Source: PubChem BioAssay (several laboratories)
LANA-H2B inh = blockers of LANA interaction with H2A/H2B – biochemical, FP readout, HTS, primary screen. cell-free LANA-H2A/H2B peptide, fluorescence polarization. inhibition, % (test concentration not listed). 320,000 compounds, 0.6% hits. AID 2629, 2010; in the data active = inhibition mostly above about 10%, no sharp cut-off; inactive = mostly below about 6.7%;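 note: stock transfer was 7.5 nL into about 10 µL; 0% = median of vehicle wells and 100% = median of positive control wells; one replicate is shown; the record names a cut of 25% in any replicate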
Calb FLC = C. albicans growth inhibition with fluconazole, primary screen, CaCi-2 strain, Alamar Blue fluorescence. C. albicans CaCi-2 (fluconazole-resistant clinical isolate) + fluconazole, 48 h. growth inhibition, % (no concentration beside the values). 300,000 compounds, 0.57% hits. AID 1979, 2009;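 active = most replicates above 75%; inconclusive = exactly half above 75%; inactive = most below 75%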;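 note: all wells also contain fluconazole at 8 µg/ml as a sub-toxic cotreatment; 0% = median of DMSO wells and 100% = median of geldanamycin control wells; wells of about 8 µL received 7.5 nL stock; the first replicate is given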
ALR H2O2 inh = inhibitors of human ALR sulfhydryl oxidase, primary screen, biochemical, H2O2 detection, HRP-luminol luminescence, single point. purified ALR, DTT oxidation. inhibition, % (concentration not given with the values). 290,000 compounds, 3.8% hits;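 active = mean and each replicate at 75% or more; inconclusive = only one of the two met; inactive = neither met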;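 note: stock transfer was 7.5 nL into about 7.5 µL; 0% = neutral wells and 100% = wells with inactivated enzyme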
Target sequence (P55789 whole entry, looked up): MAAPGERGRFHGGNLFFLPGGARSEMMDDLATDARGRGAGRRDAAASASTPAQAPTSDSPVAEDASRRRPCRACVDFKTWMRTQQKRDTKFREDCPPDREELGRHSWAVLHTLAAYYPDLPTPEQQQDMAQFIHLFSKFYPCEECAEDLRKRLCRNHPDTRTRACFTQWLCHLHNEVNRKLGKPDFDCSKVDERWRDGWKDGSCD
B2AR ag = beta2AR agonists driving receptor internalization, primary screen, cell-based, FAP fluorogen, flow cytometry; 340,000 compounds, 0.43% hits; response, % (concentration not given with the values); Beta-2 adrenergic receptor (Homo sapiens), P07550; Am2.2-beta2AR cells; reference of the scale not given here;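 active = response above a set limit, near 3 SD of response in nonfluorescent compounds, cut at about 42% in these data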;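 note: stock transfer was 100 nL into about 11 µL; a reference agonist was the positive control; negative values mostly stem from fluorescent compounds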
Target sequence (P07550 whole entry, looked up): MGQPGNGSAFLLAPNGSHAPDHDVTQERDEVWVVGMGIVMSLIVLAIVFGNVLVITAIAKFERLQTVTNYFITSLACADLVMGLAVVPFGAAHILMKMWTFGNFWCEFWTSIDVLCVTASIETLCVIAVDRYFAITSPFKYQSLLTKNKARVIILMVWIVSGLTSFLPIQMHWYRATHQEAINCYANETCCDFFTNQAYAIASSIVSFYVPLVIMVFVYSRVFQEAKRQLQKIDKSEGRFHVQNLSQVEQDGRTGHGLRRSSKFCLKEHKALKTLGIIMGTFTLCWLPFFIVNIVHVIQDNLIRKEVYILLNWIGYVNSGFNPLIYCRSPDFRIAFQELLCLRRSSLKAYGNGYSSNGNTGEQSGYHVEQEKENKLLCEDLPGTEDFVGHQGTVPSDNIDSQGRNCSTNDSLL
Bfl-1 A1 inh = caspase 3/7 activation in MEF A1-2A-BIM cells, primary screen, A1 inhibitor project, cell-based, luminescence, HTS. Caspase-Glo 3/7 luminescence, 3 h; percent of clofoctol response, vehicle zero. caspase activation, % (test concentration not listed). 330,000 compounds, 0.066% hits. AID 2462, 2010;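 active = over half of replicate activation scores above 10%, or exactly half above 10 with the replicate mean above 10; inconclusive = replicate mean below 10 yet half the replicates above 10; inactive = over half of replicates below 10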;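 note: wells of about 30 µL received 50 nL stock; many hits fall short of the cut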
Ecoli rRNA inh = reduced GFP signal of wild-type E. coli, primary screen, bacterial rRNA inhibitor project, GFP/RFP fluorescence, OD600, single point | 350,000 compounds, 1.6% hits | E. coli WT GFP vs humanized-ribosome RFP mutants, 24 h; active compounds read low; DMSO median 0, no signal -100 | GFP signal change (wild-type ribosome), % (concentration not given with the values);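 active = significant combined selectivity score with lowered wild-type GFP, culture density cut under 30%, mutant RFP and density less affected; inactive = any of these conditions unmet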; note: one replicate is shown; some compounds called inactive have numbers as strong as hits
T cruzi inh = inhibitors of intracellular T. cruzi growth, primary screen, luminescence, NIH3T3 host cells. 300,000 compounds, 1.4% hits. inhibition, % (no concentration beside the values). T. cruzi beta-gal in NIH3T3, 90 h;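 active = mean inhibition across valid replicates above about 55%, limit read from the data; inconclusive = mean below that limit but half or more replicates reach it; inactive = mean below it, under half of replicates reach it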;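 note: signal also drops with host cell toxicity which is not excluded here; 0% = plate median of DMSO wells and 100% = zero luminescence signal; higher percent means less beta-gal luminescence so fewer parasites; stock transfer was 50 nL into about 50 µL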
Beta cell apopt = inhibitors of cytokine-induced beta cell apoptosis, primary screen, luminescence. INS-1E cytokine-induced death, ATP luminescence, 48 h; percent of positive-control rescue, neutral wells zero. protection from apoptosis, % (concentration not given with the values). 300,000 compounds, 0.8% hits. AID 435005, 2010;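 active = all replicates at 75% or more, or half of them and the mean; inconclusive = half reach 75% but not the mean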;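 note: 0% = cytokine-treated negative control wells and 100% = positive control rescue; higher means more ATP so stronger rescue from cytokine killing; wells of about 40 µL received 100 nL stock; the first replicate is given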
Ecoli rRNA inh OD600 = further read-out of Ecoli rRNA inh, marked with its call; OD600 change, %; measured here: OD600 growth;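 optical density of the mix in the first replicate; 0 = DMSO median and -100 = no signal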
Ecoli rRNA inh RFP = recorded beside Ecoli rRNA inh, whose call it bears; RFP signal change, %; measured here: RFP humanized mutant strains;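 first replicate; 0 = DMSO median and -100 = no signal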
* marks the source's active call; other numbers are inactive results; ? = inconclusive; / = no result given.

SMILES | LANA-H2B inh | Calb FLC | ALR H2O2 inh | B2AR ag | Bfl-1 A1 inh | Ecoli rRNA inh | Ecoli rRNA inh OD600 | Ecoli rRNA inh RFP | T cruzi inh | Beta cell apopt
O=C(N=C1SC2CS(=O)(=O)CC2N1Cc1ccc(Cl)cc1)C1CCCO1 (centres undefined) | 0.6 | -3 | -1 | 6 | 2.4 | 0 | -1 | -1.9 | 3 | 0
COC(=O)C1=C(C)NC(C)=C(C(=O)OCC2CCCO2)C1c1ccc(Cl)c([N+](=O)[O-])c1 (centres undefined) | -6.0 | -14 | -8 | -7 | 1.6 | -5 | -9 | 4.5 | 30 | /
COc1ccc(S(=O)(=O)N2CCOCC2)cc1NC(=O)COC(=O)C1CC2CCCC(C1)C2=O (centres undefined) | -0.7 | ? | 3 | 6 | 1.4 | 2 | 14 | 2.5 | 0 | -3
COC(=O)Nc1nc2ccc(-c3n[nH]c(=O)c4ccccc34)cc2[nH]1 | 0.1 | -2 | 12 | 14 | 0.6 | / | / | / | -29 | -4
CC(=O)NCC(=O)N1CCCC(C(=O)c2ccc(-c3ccccc3)c(F)c2)C1 (centres undefined) | -2.5 | 10 | -9 | 5 | 1.2 | 0 | -11 | 3.7 | -5 | -1
O=C(NCc1ccc(Cl)cc1)c1ccc(Cl)cc1[N+](=O)[O-] | 0.0 | 0 | -2 | -7 | 0.7 | / | / | / | -3 | -3
C=C(C)CN(Cc1ccccc1)C(=S)Nc1ccccc1 | -0.5 | -8 | -1 | 13 | 1.0 | -10 | -12 | -7.4 | -20 | /
Cc1ccc(NC(=O)C2COc3ccccc3O2)cc1S(=O)(=O)N1CCOCC1 (centres undefined) | 0.3 | / | -1 | 4 | 0.8 | 0 | -19 | 4.8 | / | 4
COc1ccc(C2NC(=O)NC(O)(C(F)(F)F)C2C(=O)c2ccc(F)cc2)cc1 (centres undefined) | -1.2 | 6 | -9 | -5 | -0.3 | / | / | / | -9 | -2
Cc1ccc2c(COC(=O)c3ccc(NC(=O)CC#N)cc3)cc(=O)oc2c1C | -3.1 | -1 | -9 | 0 | 0.2 | 3 | 2 | -2.6 | -7 | 0
C=CCOC(=O)/C(=C\c1ccc(OC)cc1)NC(=O)c1ccco1 | -1.6 | 3 | -3 | -8 | -0.1 | / | / | / | 0 | -7
CC1CN(CCC(=O)Nc2ccc3c(c2)OCO3)CC(C)O1 (centres undefined) | -0.1 | -15 | -15 | 6 | 0.1 | / | / | / | -9 | /
COc1ccc(CNC(=O)COC(=O)CC2CCCC2)cc1 | 3.3 | 14 | 17 | 2 | -1.0 | / | / | / | 3 | -1
CC1=C(C(=O)N2CCc3ccccc32)C2(CCC(C)CC2)OC1=O (centres undefined) | -2.1 | -16 | -3 | -10 | 0.3 | -2 | -16 | -0.8 | 60* | -4
O=C(CCCn1c(=O)[nH]c2cc(Cl)ccc2c1=O)NCCN1CCN(c2ccccc2)CC1 | -2.8 | -8 | 30 | 0 | -0.3 | / | / | / | 11 | 5
Cc1ccc2c(Cl)cc(Cl)c(OCc3c(C)noc3C)c2n1 | -2.5 | 11 | 0 | -7 | -1.1 | / | / | / | -6 | -10
COc1cccc(CNC(=O)Cc2ccc(NC3=NC4CS(=O)(=O)CC4S3)cc2)c1 (centres undefined) | -3.2 | -2 | -11 | 4 | / | -2 | 0 | 1.1 | 1 | -4
COCCOC(=O)C1=C(C)N(Cc2ccccc2)C(=O)NC1c1ccc(OC)cc1 (centres undefined) | -2.5 | 5 | / | -5 | -0.4 | / | / | / | -3 | 0
CCc1nnc(NC(=O)NCN2C(=O)C3C4C=CC(C4)C3C2=O)s1 (centres undefined) | 0.8 | 5 | 2 | -2 | 0.4 | / | / | / | -3 | -5
O=C(Nc1ccc(F)cc1F)Nc1ccccc1C(=O)NCCN1CCNC1=O | 1.6 | 2 | -1 | 0 | 0.4 | 3 | 8 | 1.8 | -12 | -11
COc1ccccc1C(=O)NCC(=O)NNc1ncnc(N)c1[N+](=O)[O-] | -2.5 | 3 | -8 | / | 0.4 | / | / | / | -3 | -3
COc1ccc(NC(=O)c2nc[nH]c2C(=O)N[C@@H](CC(C)C)C(=O)OC(C)(C)C)cc1 | 0.0 | 11 | 2 | -10 | 0.1 | 23 | 13 | -0.9 | 35 | 69
COc1ccc(/C=N/NC(=O)c2c(-c3ccccc3)noc2C)cc1 | -1.4 | -1 | 0 | 8 | 0.3 | -16 | -16 | 0.4 | 6 | 4
Cc1ccc(NC(=O)[C@H](NC(=O)[C@@H]2Cc3ccccc3CN2)c2ccccc2)cc1C | -1.1 | 1 | -5 | 4 | -0.3 | -5 | -21 | 10 | 5 | 0
O=C(Nc1ccc(Cl)c(Cl)c1)Nc1nnc(CSc2ccccc2)s1 | -4.7 | 4 | 0 | 12 | 0.5 | -4 | 8 | -0.1 | 3 | 100*
COc1cccc(CN(CC(=O)NCC2CCCO2)C(=O)CNS(=O)(=O)c2ccccc2)c1 (centres undefined) | -3.3 | -13 | -3 | -3 | 0.6 | 10 | 4 | -0.6 | -15 | -8
CCCn1c(NCc2ccccn2)nc2ccccc21 | 12 | 43 | / | 1 | -0.1 | / | / | / | -9 | -9
Clc1ccc(-c2csc(NNC3=NCCCCC3)n2)cc1 | 0.1 | -11 | / | 7 | 0.1 | / | / | / | 16 | 11
CC(=O)c1c(C)[nH]c(C(=O)OCC(=O)Nc2ccc3[nH]c(=O)[nH]c3c2)c1C | 0.5 | / | -10 | -4 | 1.0 | -1 | 0 | 0.7 | -7 | -3
COC(=O)c1cc(CNC(=O)c2ccccc2OCc2c(C)noc2C)ccc1OC | -0.2 | -1 | -10 | 9 | -0.2 | -11 | -10 | -0.4 | 3 | -5

Part of the list above, with values under each structure.
The line under a structure holds: LANA-H2B inh	Calb FLC	ALR H2O2 inh	B2AR ag	Bfl-1 A1 inh	Ecoli rRNA inh	Ecoli rRNA inh OD600	Ecoli rRNA inh RFP	T cruzi inh	Beta cell apopt
> COc1ccc(NC(=O)c2nc[nH]c2C(=O)N[C@@H](CC(C)C)C(=O)OC(C)(C)C)cc1
  0.0	11	2	-10	0.1	23	13	-0.9	35	69
> COc1ccc(/C=N/NC(=O)c2c(-c3ccccc3)noc2C)cc1
  -1.4	-1	0	8	0.3	-16	-16	0.4	6	4

Further entries.
SMILES | LANA-H2B inh | Calb FLC | ALR H2O2 inh | B2AR ag | Bfl-1 A1 inh | Ecoli rRNA inh | Ecoli rRNA inh OD600 | Ecoli rRNA inh RFP | T cruzi inh | Beta cell apopt
CCOC(=O)N1CCN(C(=O)c2ccc(CS(=O)Cc3ccc(C)cc3)o2)CC1 (centres undefined) | 4.1 | 18 | 0 | -6 | -0.3 | 9 | 20 | 0.6 | -9 | 2
Cc1ccc2c(c1)N(C(=O)CCC(=O)O)CCO2 | -0.1 | -7 | 0 | 3 | 0.8 | / | / | / | -20 | -7
CCOc1ncccc1C(=O)OCC(=O)NCc1ccc(C(=O)OC)cc1 | 0.4 | / | 2 | 17 | 1.3 | -19 | -22 | -1.6 | / | 7
CCN(CC)C(=O)Cn1cc(C(=O)C(=O)N2CCN(Cc3ccccc3)CC2)c2ccccc21 | -2.5 | ? | 1 | 4 | -0.5 | 15 | 10 | 0.8 | -2 | 0
NC(=O)NCC12CC3CC(CC(C3)C1)C2 | 0.7 | -5 | -5 | -4 | -0.5 | / | / | / | -7 | -6
CC(=O)Nc1ccc(NC(=O)CSc2nc3ccccc3nc2N2CCCCC2)cc1 | -2.7 | 18 | / | -8 | 0.3 | 1 | 11 | -3.4 | 17 | -2
COc1cc(NC(=O)c2ccc(S(=O)(=O)N(C)c3ccccc3OC)cc2)cc(OC)c1 | -0.3 | / | -1 | 7 | 0.6 | -16 | -3 | 0.4 | / | 4
COc1ccc(CC(=O)Nc2c(C(N)=O)oc3ccccc23)cc1OC | -0.3 | 32 | -10 | -2 | -0.2 | 4 | 1 | 1.1 | -14 | 2
Cc1cc(C)n2nc(C(=O)OCC(=O)NC3CCCCC3)nc2n1 | -3.6 | 2 | -4 | -7 | 1.5 | 13 | 13 | 3.4 | -5 | 1
CCCCN1C(=O)C(=O)N(CC(=O)Nc2ccccc2C(C)=O)C1=O | 1.8 | / | -7 | -2 | -1.3 | 11 | -1 | 2.0 | / | 2

Seven compounds out of the list above, arranged by the value under Bfl-1 A1 inh, falling:
| Compound | Bfl-1 A1 inh |
| --- | --- |
| Cc1cc(C)n2nc(C(=O)OCC(=O)NC3CCCCC3)nc2n1 | 1.5 |
| CCOc1ncccc1C(=O)OCC(=O)NCc1ccc(C(=O)OC)cc1 | 1.3 |
| Cc1ccc2c(c1)N(C(=O)CCC(=O)O)CCO2 | 0.8 |
| COc1ccc(CC(=O)Nc2c(C(N)=O)oc3ccccc23)cc1OC | -0.2 |
| CCOC(=O)N1CCN(C(=O)c2ccc(CS(=O)Cc3ccc(C)cc3)o2)CC1 (centres undefined) | -0.3 |
| NC(=O)NCC12CC3CC(CC(C3)C1)C2 | -0.5 |
| CCCCN1C(=O)C(=O)N(CC(=O)Nc2ccccc2C(C)=O)C1=O | -1.3 |

(next part)
SMILES | LANA-H2B inh | Calb FLC | ALR H2O2 inh | B2AR ag | Bfl-1 A1 inh | Ecoli rRNA inh | Ecoli rRNA inh OD600 | Ecoli rRNA inh RFP | T cruzi inh | Beta cell apopt
CC(C)N(CCCNC(=O)Cn1ncc2c([nH]c3ccccc32)c1=O)Cc1ccccc1 | 3.4 | 7 | -7 | -2 | 0.0 | 6 | 1 | -3.2 | 12 | /
COc1ccccc1NS(=O)(=O)c1cc(NC(=O)CC(C)(C)C)ccc1N1CCOCC1 | 2.2 | 4 | -7 | 3 | 0.0 | -2 | 3 | 0.8 | 15 | /
Oc1c(Cl)cc(Cl)cc1Sc1cc(Cl)cc(Cl)c1O | -0.6 | / | 25 | / | -0.1 | / | / | / | -1 | 28
Cc1ccc(C(=O)Nc2nc(-c3ccccn3)cs2)o1 | -0.5 | -2 | -1 | 5 | 0.9 | 2 | 0 | 3.7 | 45 | 62
Cc1ccc(NC2=NCC(=O)N2Cc2ccc3c(c2)OCO3)cc1 | 1.6 | -8 | -10 | -4 | 0.1 | / | / | / | 3 | -1
COc1ccccc1Nc1nc2nonc2nc1N1CCC(C)CC1 | -1.6 | -10 | -8 | -2 | -0.1 | / | / | / | 19 | /
Cc1ccc(-n2c(SCC(=O)N/N=C/c3ccc(C)s3)nnc2-c2ccccc2)cc1 | -1.2 | 0 | -2 | -5 | -0.3 | 1 | -3 | 4.0 | 14 | 3
CC(=O)Nc1ccc(S(=O)(=O)N2CCN(c3nc(NC4CCCC4)c4ccccc4n3)CC2)cc1 | 3.5 | 2 | 5 | 10 | 0.1 | / | / | / | 23 | 10

The list is partial. The share of hits here may be higher or lower than overall.
